PKD1 inh = PKD1 (human) kinase inhibition; inhibition, %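 (about 10 µM by stock and volumes)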; actives 0.056% (n = 200,000); PKD1 kinase fluorescence polarization assay; Q15139;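 active = inhibition of 50% or more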;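 also: controls were vehicle for no effect and a reference inhibitor for full effect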
Insulin prom inh = TRM-6 insulin promoter activity inhibition; TRM-6 cells (human fetal islet line), insulin promoter-eGFP reporter, imaging; reporter expression induced with tamoxifen; inhibition, % at 2 µM; actives 0.9% (n = 130,000);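 active = inhibition above the mean plus 3 SD, with well images judged a real hit on visual review, cut at about 60% in these data, passing the limit was not always enough; inconclusive = inhibition over the cutoff but images rejected on review; inactive = inhibition not above the cutoff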
RGS16-Gao = modulates binding between human RGS16 and Galphao; O15492+P09471; bead-based flow cytometry RGS16-Galphao binding, fluorescence; actives lie on both sides; binding response (% of control), % at 10 µM; actives 0.38% (n = 220,000);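 active = below 25% or above 175%, edge rows of some plates excepted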;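 also: Galphao activated by GDP with aluminum fluoride before binding; 100% = wells without compound and 0% = beads without RGS; some results beyond the cut were filed as inactive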
Target sequence (O15492 whole entry, looked up): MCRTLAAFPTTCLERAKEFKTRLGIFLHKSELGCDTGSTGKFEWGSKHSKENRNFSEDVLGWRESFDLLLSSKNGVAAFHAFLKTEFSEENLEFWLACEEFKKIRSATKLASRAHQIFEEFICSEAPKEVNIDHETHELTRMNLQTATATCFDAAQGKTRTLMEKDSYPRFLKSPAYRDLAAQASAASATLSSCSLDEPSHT
Target sequence (P09471 whole entry, looked up): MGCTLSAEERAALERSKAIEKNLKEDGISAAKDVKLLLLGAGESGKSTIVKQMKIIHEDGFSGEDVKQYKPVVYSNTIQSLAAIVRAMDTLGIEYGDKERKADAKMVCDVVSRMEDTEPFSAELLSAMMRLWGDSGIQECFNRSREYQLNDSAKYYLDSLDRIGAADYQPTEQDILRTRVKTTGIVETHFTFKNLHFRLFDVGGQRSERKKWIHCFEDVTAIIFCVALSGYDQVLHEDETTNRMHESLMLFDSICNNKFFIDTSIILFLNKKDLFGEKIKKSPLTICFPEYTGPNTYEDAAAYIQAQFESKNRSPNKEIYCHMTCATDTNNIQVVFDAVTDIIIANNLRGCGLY
GALR2 agonist = activates the human galanin receptor 2 | actives 0.48% (n = 140,000) | GALR2-expressing cells, agonist activation read-out | AID 803 | O43603 | activation, %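 (tested at 5 µM)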;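 active = above mean plus 3 SD of all compounds, about 5% in these data, not always enough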;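 also: 0% = vehicle buffer wells and 100% = reference agonist at full effect; tested in CHO reporter cells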
Target sequence (O43603 whole entry, looked up): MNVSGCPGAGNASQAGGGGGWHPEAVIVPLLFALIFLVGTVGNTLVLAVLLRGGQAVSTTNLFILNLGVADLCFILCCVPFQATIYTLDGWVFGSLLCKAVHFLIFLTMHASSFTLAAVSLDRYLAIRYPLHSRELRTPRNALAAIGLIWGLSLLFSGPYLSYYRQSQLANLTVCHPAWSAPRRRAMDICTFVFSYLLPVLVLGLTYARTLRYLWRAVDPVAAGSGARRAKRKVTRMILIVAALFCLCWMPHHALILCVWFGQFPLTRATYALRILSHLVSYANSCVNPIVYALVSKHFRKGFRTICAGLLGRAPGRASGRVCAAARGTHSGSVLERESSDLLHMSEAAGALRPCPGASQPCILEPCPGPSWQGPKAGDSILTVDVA
HSV replic up = HSV replication enhancement; HSV replication augmentation in cells, fold increase; maximum fold increase; actives 0.005% (n = 220,000);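 active = peak rise of 1.5-fold or more in the series; inconclusive = self-fluorescent or not available for retest; tested in PC3 cells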;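 also: first round at 10 µM; read as green reporter fluorescence; hits show the peak of a series up to 25 µM; 1 = signal of infected wells without compound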
Insulin prom inh cell count = recorded beside Insulin prom inh, whose call it bears; normalized cell count, %; measured here: cell count, toxicity; reference of the scale not given here;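 cells exposed to compound for 48 h; stained nuclei by imaging scaled within each plate; lower means fewer cells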
HSV replic up primary fold = also measured in HSV replic up; calls as there; fold increase; compound at 10 µM; measured here: primary screen fold increase 10 uM; tested in PC3 cells;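 GFP signal in the first replicate; 1 = infected wells without compound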
* marks the source's active call; other numbers are inactive results. Rows were taken by chance. About 1.3% of those tested had a hit in this group.

For NC(Cc1ccc(O)cc1)c1cn([C@@H](CCC(=O)O)C(=O)N2CCNCC2)nn1 (some centres not stated) the results were PKD1 inh 3.6, RGS16-Gao 94.8, HSV replic up inactive and HSV replic up primary fold 1.14.
CCOc1ccc(NS(=O)(=O)c2ccc(C)c(C(N)=O)c2)cc1 was read as PKD1 inh -7.7, RGS16-Gao 95.7, HSV replic up inactive and HSV replic up primary fold 0.91.
For Cc1ccc2oc(C(=O)Nc3c(C)n(C)n(-c4ccccc4)c3=O)c(C)c2c1 the results were PKD1 inh -3.6, Insulin prom inh 45.5, GALR2 agonist 0.2 and Insulin prom inh cell count 65.4.
`c1ccc(-c2noc(CN3CCOCC3)n2)cc1` gave PKD1 inh -0.7, Insulin prom inh -15.4, RGS16-Gao 104.0, HSV replic up inactive, Insulin prom inh cell count 122.0 and HSV replic up primary fold 0.92.
Screening Cc1ccc(OCc2n[nH]c(=S)n2C2CCCCC2)cc1 returned PKD1 inh 1.2, Insulin prom inh -17.1, RGS16-Gao 101.2, GALR2 agonist -2.4, HSV replic up inactive, Insulin prom inh cell count 69.1 and HSV replic up primary fold 0.86.
For CCOC(=O)C1CCCN(C(=O)CN2C(=O)/C(=C/c3ccc(OC)cc3)Oc3ccccc32)C1 (configuration not stated) the results were PKD1 inh 1.0, Insulin prom inh -18.5, RGS16-Gao 105.3, GALR2 agonist 0.0, HSV replic up inactive, Insulin prom inh cell count 102.3 and HSV replic up primary fold 0.81.
Screening Cc1nnc(NC(=O)CSC2=NN3CCCC(=O)N=C3S2)s1 returned PKD1 inh -2.2, Insulin prom inh 15.8, RGS16-Gao 101.2, HSV replic up inactive, Insulin prom inh cell count 99.3 and HSV replic up primary fold 1.01.
`Brc1ccc2c(c1)[C@H]1OCC[C@H]1[C@@H](c1cccs1)N2` gave RGS16-Gao 100.7, HSV replic up inactive and HSV replic up primary fold 0.83.
Screening CCOC(=O)C1CCN(c2ncnc3nc[nH]c23)CC1 returned PKD1 inh 3.4, RGS16-Gao 100.5, GALR2 agonist -0.7, HSV replic up inactive and HSV replic up primary fold 0.89.
For [O-]/[N+](=C/c1ccc(F)cc1)c1ccccc1 the results were PKD1 inh -11.4, Insulin prom inh -18.8, RGS16-Gao 88.2, GALR2 agonist -2.8, HSV replic up inactive, Insulin prom inh cell count 109.3 and HSV replic up primary fold 0.93.
Screening O=C(Nc1ccc2c(c1)OCO2)Nc1cnccn1 returned PKD1 inh 12.4, Insulin prom inh -20.6, RGS16-Gao 75.8, GALR2 agonist -1.6, HSV replic up inactive, Insulin prom inh cell count 198.3 and HSV replic up primary fold 1.04.
COc1ccccc1N1CCN(c2ccc([N+](=O)[O-])cc2Cl)CC1 was read as PKD1 inh -1.2, Insulin prom inh -3.3, RGS16-Gao 96.8, GALR2 agonist -1.6, HSV replic up inactive, Insulin prom inh cell count 114.7 and HSV replic up primary fold 0.76.
O=C(CCc1nc2ccccc2n1-c1ccccc1)NCCO was read as PKD1 inh 0.8, Insulin prom inh -4.0, RGS16-Gao 101.6, GALR2 agonist 0.0, HSV replic up inactive, Insulin prom inh cell count 49.9 and HSV replic up primary fold 1.03.
CCOc1ccc(C(=O)CCC(=O)NC(CC(C)C)C(=O)OC)cc1 (configuration not stated) was read as PKD1 inh -2.2, RGS16-Gao 101.8, HSV replic up inactive and HSV replic up primary fold 0.96.
For CCCCC(=O)Nc1ncc(Br)s1 the results were PKD1 inh 2.4, Insulin prom inh 71.4, RGS16-Gao 107.6, GALR2 agonist -2.9, HSV replic up inactive, Insulin prom inh cell count 126.2 and HSV replic up primary fold 1.03.
Cc1ccccc1C(=O)NC1CCN(CC(=O)Nc2c(C)cccc2C)CC1 was read as PKD1 inh -4.3, Insulin prom inh 51.7, RGS16-Gao 111.5, GALR2 agonist -2.7, HSV replic up inactive, Insulin prom inh cell count 103.9 and HSV replic up primary fold 0.96.
For CCN(C(=O)CSC1=Nc2ccccc2C2CC=NN12)C1CCS(=O)(=O)C1 (configuration not stated) the results were PKD1 inh 10.5, RGS16-Gao 98.9, HSV replic up inactive and HSV replic up primary fold 0.99.
CCOC(=O)c1c(/N=C/c2cc(C)ccc2O)sc2c1CCC2 was read as PKD1 inh -0.9, Insulin prom inh 38.8, RGS16-Gao 105.5, GALR2 agonist -0.5, HSV replic up inconclusive and Insulin prom inh cell count 98.5.
CNC(=S)Nc1ccc(C(N)=O)cc1 was read as PKD1 inh -2.1, RGS16-Gao 101.3, HSV replic up inactive and HSV replic up primary fold 0.98.
NNC(=O)c1ccc(CSc2nc3ccccc3[nH]2)cc1 was read as PKD1 inh -6.0, RGS16-Gao 100.5, HSV replic up inactive and HSV replic up primary fold 1.09.
Screening Cc1cc(Nc2cccc(F)c2)n2c(n1)nc1ccccc12 returned PKD1 inh -1.7, Insulin prom inh 38.5, RGS16-Gao 104.1, GALR2 agonist -2.1, HSV replic up inactive, Insulin prom inh cell count 60.3 and HSV replic up primary fold 0.73.
O=C(COc1ncnc2cc([N+](=O)[O-])ccc12)NC(=O)NC1CCCCC1 was read as PKD1 inh 5.9, Insulin prom inh 45.5, RGS16-Gao 87.0, HSV replic up inactive, Insulin prom inh cell count 160.7 and HSV replic up primary fold 0.9.
`Cc1cc(N)n(-c2nc(-c3cccnc3)nc3ccccc23)n1` gave PKD1 inh -5.8, Insulin prom inh -10.0, RGS16-Gao 108.0, GALR2 agonist 0.7, HSV replic up inactive, Insulin prom inh cell count 61.0 and HSV replic up primary fold 0.87.
Screening C/C(=N\NC(=O)c1c(Br)c(C)nn1C)c1ccc(NC(=O)C(C)Oc2ccc(Cl)cc2C)cc1 (configuration not stated) returned PKD1 inh -4.2, RGS16-Gao 98.9, GALR2 agonist -0.1, HSV replic up inactive and HSV replic up primary fold 0.75.
Screening CCCc1nc2ccccc2n1CC(O)COc1ccc(NC(C)=O)cc1 (configuration not stated) returned PKD1 inh -6.0, RGS16-Gao 94.7, HSV replic up inactive and HSV replic up primary fold 1.05.
`O=C(N/N=C/c1cn(-c2cccs2)nc1-c1ccccc1)c1ccc(O)cc1` gave PKD1 inh 3.5, Insulin prom inh -6.7, RGS16-Gao 95.8, GALR2 agonist 3.2, HSV replic up inactive, Insulin prom inh cell count 86.7 and HSV replic up primary fold 0.77.
`COc1ccc(-c2cc(=O)oc3cc(OCc4nn[nH]n4)ccc23)cc1` gave PKD1 inh -5.4, Insulin prom inh -42.9, RGS16-Gao 84.1, GALR2 agonist -0.3, HSV replic up inactive, Insulin prom inh cell count 114.4 and HSV replic up primary fold 0.52.
CCCc1ncc(C(O)c2ccccc2OC)n1C (configuration not stated) was read as PKD1 inh -1.4, RGS16-Gao 98.1, HSV replic up inactive and HSV replic up primary fold 0.92.
Screening COc1ccc(N2C(=O)C3C4C=CC(C4)C3C2=O)c([N+](=O)[O-])c1 (configuration not stated) returned PKD1 inh -4.4, Insulin prom inh 35.1, RGS16-Gao 103.1, HSV replic up inactive, Insulin prom inh cell count 106.2 and HSV replic up primary fold 0.92.
`CN(C(=O)CSc1nncc2ccccc12)C1CCCCC1` gave PKD1 inh -0.2, Insulin prom inh 69.2, RGS16-Gao 100.0, HSV replic up inactive, Insulin prom inh cell count 173.6 and HSV replic up primary fold 0.91.

Among those listed so far, 2 have fluorine:
For [O-]/[N+](=C/c1ccc(F)cc1)c1ccccc1 the results were PKD1 inh -11.4, Insulin prom inh -18.8, RGS16-Gao 88.2, GALR2 agonist -2.8, HSV replic up inactive, Insulin prom inh cell count 109.3 and HSV replic up primary fold 0.93.
Screening Cc1cc(Nc2cccc(F)c2)n2c(n1)nc1ccccc12 returned PKD1 inh -1.7, Insulin prom inh 38.5, RGS16-Gao 104.1, GALR2 agonist -2.1, HSV replic up inactive, Insulin prom inh cell count 60.3 and HSV replic up primary fold 0.73.

New compounds follow:
Screening COCc1c(C(=O)Nc2nc(C)cs2)oc2ccccc12 returned PKD1 inh 0.4, RGS16-Gao 104.3, HSV replic up inactive and HSV replic up primary fold 1.03.
`CCN(CC)S(=O)(=O)c1csc(C(=O)Nc2ccccn2)c1` gave PKD1 inh 3.0, Insulin prom inh 63.6, RGS16-Gao 105.1, GALR2 agonist -1.1, HSV replic up inactive, Insulin prom inh cell count 110.4 and HSV replic up primary fold 0.85.
Screening COc1ccc(-n2c(=O)c3c4c(sc3n3c(=S)[nH]nc23)CCCC4)cc1 returned PKD1 inh -8.2, Insulin prom inh 25.6, RGS16-Gao 88.0, GALR2 agonist -0.4, HSV replic up inactive, Insulin prom inh cell count 64.1 and HSV replic up primary fold 1.
CC(C(=O)O)N1C(=O)c2ccccc2C1=O (configuration not stated) was read as PKD1 inh -3.0, Insulin prom inh 37.0, RGS16-Gao 104.3, GALR2 agonist -2.0, HSV replic up inactive, Insulin prom inh cell count 44.9 and HSV replic up primary fold 0.89.
CC1CCC2C(=O)N(c3ccccc3OC(=O)c3ccccc3F)C(=O)C2C1 (configuration not stated) was read as PKD1 inh -7.3, RGS16-Gao 103.6, HSV replic up inactive and HSV replic up primary fold 1.
Screening CC(=O)N(C)Cc1ccc(C(=O)CCl)cc1 returned PKD1 inh -7.5, RGS16-Gao 97.4, HSV replic up inactive and HSV replic up primary fold 1.02.
For CC(C)CC(N)C(=O)OCc1ccc([N+](=O)[O-])cc1 (configuration not stated) the results were RGS16-Gao 101.7, HSV replic up inactive and HSV replic up primary fold 1.09.
Screening O=C(Nc1nc(-c2ccc3c(c2)OCCO3)cs1)c1ccc(S(=O)(=O)N2CCCCC2)cc1 returned PKD1 inh -7.8, Insulin prom inh 15.2, RGS16-Gao 102.0, GALR2 agonist -4.4, HSV replic up inactive, Insulin prom inh cell count 77.3 and HSV replic up primary fold 0.74.
For COc1ccc(C(=O)N2CCCC(C(=O)N3CCN(c4ccccc4)CC3)C2)cc1 (configuration not stated) the results were RGS16-Gao 109.1, HSV replic up inactive and HSV replic up primary fold 0.84.
`Cc1ccc(S(=O)(=O)Nc2cccc3ncccc23)s1` gave PKD1 inh -6.2, RGS16-Gao 98.0, GALR2 agonist 0.3, HSV replic up inactive and HSV replic up primary fold 0.8.
For O=C(CSc1nc2ncccc2[nH]1)c1ccc(F)cc1 the results were PKD1 inh -6.7, RGS16-Gao 36.8, GALR2 agonist -1.2, HSV replic up inactive and HSV replic up primary fold 0.95.
Cc1cccc(OC(=O)c2cncc(Br)c2)c1 was read as PKD1 inh -2.6, Insulin prom inh -35.7, RGS16-Gao 105.0, HSV replic up inactive, Insulin prom inh cell count 71.6 and HSV replic up primary fold 0.91.
`CCOC(=O)Nc1nnc(/C=C/c2ccc(OC)cc2)s1` gave PKD1 inh 12.4, RGS16-Gao 104.9, GALR2 agonist 0.4, HSV replic up inactive and HSV replic up primary fold 1.12.
Screening Cc1cnc(NC(=O)CSc2nnc(COc3ccccc3)o2)s1 returned RGS16-Gao 100.4, HSV replic up inactive and HSV replic up primary fold 0.94.
`N#Cc1c(N)nc2c(c1N)CC(=O)N2c1ccc(Cl)cc1` gave PKD1 inh -4.1, Insulin prom inh 5.4, RGS16-Gao 93.6, GALR2 agonist -0.7, HSV replic up inactive, Insulin prom inh cell count 97.0 and HSV replic up primary fold 0.79.
O=C(CSc1nc2c(c(=O)n1-c1ccc(F)cc1)SCC2)NCc1ccco1 was read as PKD1 inh -11.2, Insulin prom inh -28.6, RGS16-Gao 95.6, GALR2 agonist -1.9, HSV replic up inactive, Insulin prom inh cell count 90.5 and HSV replic up primary fold 0.92.
For O=C(COc1ccc(Cl)cc1Cl)OCC(=O)N1CCCc2ccccc21 the results were PKD1 inh -5.6, RGS16-Gao 144.2, GALR2 agonist -0.1, HSV replic up inactive and HSV replic up primary fold 1.22.
Cc1ccc(/C=N/NC(=O)c2ccc3nc[nH]c3c2)s1 was read as PKD1 inh -5.1, Insulin prom inh -15.0, RGS16-Gao 97.7, HSV replic up inactive, Insulin prom inh cell count 130.1 and HSV replic up primary fold 1.
`CC(C)c1cc[n+](-c2nc([O-])sc2C=O)cc1` gave PKD1 inh 1.4, Insulin prom inh 13.6, RGS16-Gao 97.8, GALR2 agonist -0.8, HSV replic up inactive, Insulin prom inh cell count 159.3 and HSV replic up primary fold 0.96.
Screening Cc1nc2c(F)c(F)c(C(F)(F)F)c(F)c2[nH]1 returned PKD1 inh -7.9, Insulin prom inh 54.5, RGS16-Gao 89.5, GALR2 agonist -0.7, HSV replic up inactive, Insulin prom inh cell count 116.7 and HSV replic up primary fold 0.88.
O=C(C(Cc1ccccc1)N1C(=O)c2ccccc2C1=O)N1CCc2ccccc21 (configuration not stated) was read as PKD1 inh 3.0, Insulin prom inh 50.0, RGS16-Gao 103.4, GALR2 agonist -1.3, HSV replic up inactive, Insulin prom inh cell count 161.0 and HSV replic up primary fold 1.01.
